Six1-Eya2 blk – qHTS Assay for Inhibitors of the Six1/Eya2 Interaction. Homeobox protein SIX1 (Homo sapiens) + Protein phosphatase EYA2 (Homo sapiens), …. AlphaScreen GST-Six1/His-Eya2 binding, biochemical; stronger effect = lower value; control for the full effect not named in the record. activity change, % (test concentration not listed). 360,000 compounds, 0.56% hits; in the data active = activity change below about -65%; inconclusive = about -30% to -65%; inactive = above about -30%; also: % is scaled to controls: 0 for no effect and ±100 for the full control effect
Target sequence (O00167 whole entry, looked up): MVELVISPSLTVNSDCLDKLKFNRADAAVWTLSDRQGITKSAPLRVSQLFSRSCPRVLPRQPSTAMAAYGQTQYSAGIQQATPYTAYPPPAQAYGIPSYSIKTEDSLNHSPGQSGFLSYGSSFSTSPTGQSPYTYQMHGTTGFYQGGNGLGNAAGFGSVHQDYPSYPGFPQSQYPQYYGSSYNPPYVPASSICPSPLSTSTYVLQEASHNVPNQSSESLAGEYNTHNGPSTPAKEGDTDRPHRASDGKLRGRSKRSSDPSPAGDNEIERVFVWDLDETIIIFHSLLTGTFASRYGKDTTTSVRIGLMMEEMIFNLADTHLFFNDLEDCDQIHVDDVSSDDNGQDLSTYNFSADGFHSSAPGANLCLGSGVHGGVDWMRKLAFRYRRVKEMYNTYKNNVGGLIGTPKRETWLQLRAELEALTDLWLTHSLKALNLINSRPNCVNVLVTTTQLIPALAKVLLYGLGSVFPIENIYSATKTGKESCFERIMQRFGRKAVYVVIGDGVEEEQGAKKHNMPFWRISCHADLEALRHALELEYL
Target sequence (Q15475 whole entry, looked up): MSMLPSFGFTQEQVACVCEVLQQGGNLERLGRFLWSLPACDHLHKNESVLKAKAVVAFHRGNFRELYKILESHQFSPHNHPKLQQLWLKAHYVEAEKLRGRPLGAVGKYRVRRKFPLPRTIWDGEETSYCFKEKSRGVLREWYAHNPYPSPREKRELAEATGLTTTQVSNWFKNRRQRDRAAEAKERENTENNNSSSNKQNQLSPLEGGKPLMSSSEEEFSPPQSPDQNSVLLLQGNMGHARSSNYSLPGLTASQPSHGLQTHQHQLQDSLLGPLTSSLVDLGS
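Compounds are tested against tagged Six1 and Eya2 proteins bridged by glutathione donor and nickel acceptor beads; after a one-hour incubation at 37 °C without light, AlphaScreen emission is recorded.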
TRPML1 ag – qHTS for Agonists of the Human Mucolipin Transient Receptor Potential 1 (TRPML1); activation, % (concentration not given with the values); TRPML1-expressing cells, Ca2+ dye fluorescence, FDSS; host cell line not named in the record; reference of the full effect not given here; 410,000 compounds, 0.12% hits; in the data active = activation above about 50%; inconclusive = about 30% to 50%; inactive = below about 30%; also: 0% is about no effect; the text of the record puts the active cut at 80%
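Cells: TRPML1-DL, 1X Tet inducer, ~16 h at 37 degrees C/5% CO2. Dye: ABD Ca8 no-wash + quencher, 45-90 min RT. Read: 10 s baseline, compound add, 110 s agonist phase; 54-4 EC80 (4uM final), 110 s antagonist phase.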
CtBP-E1A blk – qHTS Assay for Inhibitors of the CtBP/E1A Interaction. CtBP / adenovirus E1A interaction (AlphaScreen). AlphaScreen GST-E1A/His-CtBP binding, 1536-well; stronger effect = lower value; control for the full effect not named in the record. activity change, % (concentration not given with the values). 340,000 compounds, 0.49% hits. AID 651724, 2012; in the data active means activity change below about -65%; inconclusive means about -30% to -65%; inactive means above about -30%; also: % is scaled to controls: 0 for no effect and ±100 for the full control effect
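Steps: dispense buffer (Tris pH 8.0, NaCl 300 mM, TCEP 1 mM, BSA, Tween 20); add 5X protein mix (GST-E1A, His-CtBP, 125 nM each); pin 23 nL compound; 2 h at 37 °C, dark; add 5X beads (50 ug/mL); 1 h; read.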
TRPML1 inh – qHTS for Inhibitors of the Human Mucolipin Transient Receptor Potential 1 (TRPML1); Mucolipin-1 (Homo sapiens), Q9GZU1; TRPML1-inducible cells, Ca2+ dye fluorescence, FDSS; stronger effect = lower value; inhibition of EC80 agonist-evoked calcium signal; activity change, negative = inhibition, % (concentration not given with the values); 390,000 compounds, 0.02% hits; AID 624415, 2012; in the data active means activity change below about -50%; inconclusive means about -30% to -50%; inactive means above about -30%;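 also: stimulus is agonist 54-4 at its EC80 concentration; % is scaled to controls: 0 for no effect and ±100 for the full control effect; the text of the record puts the active cut at -80%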
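Calcium fluorescence in TRPML1-DL cells induced overnight with Tet: a 110 s read after compound pin addition, then a 110 s antagonist read after challenge with 54-4 at 4 uM final (EC80).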
D2 agonist – Beta-Arrestin HTS for Positive Allosteric Modulators of the Human D2 Dopamine Receptor: Agonists. DiscoveRx PathHunter D2 beta-arrestin, luminescence, 90 min; 100% = 57 uM dopamine signal. D(2) dopamine receptor (Homo sapiens), P14416. activation, % (concentration not given with the values). 360,000 compounds, 0.084% hits; in the data active = activation above about 40%; inconclusive = about 15% to 40%; inactive = below about 15%; also: the text of the record calls up to 30% inactive
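Agonist mode: compounds alone added to overnight-plated D2 PathHunter cells for 90 min at 37 C, with 57 uM final dopamine (EC100) defining full response. Beta-arrestin recruitment detected by chemiluminescent reagent, read after 1 h at ambient temperature.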
PINK1 modulator – A Quantitative High throughput Screen to Identify Chemical Modulators of PINK1 Expression; PINK1 immunofluorescence, high-content cytometry, 24 h; Potency, µM (top dose mostly 76.6 µM), without a hit: at the top dose activation (PINK1 increase), actives largely listed as activators; 410,000 compounds, 0.2% hits; active = well fitted activation curve with a large enough effect; inconclusive = small, poorly fitted or top-dose-only effect; inactive = flat fitted curve, though single readings scatter; cell line not stated here;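 also: potency is read from the fitted curve at half-maximal effect; % of control where 0% means no effect; nearly all actives have a fitted effect of over 65% in size; a mitochondrial uncoupler was the plate control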
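Cells are seeded, rested 12 hours, then given compound at five concentrations or DMSO for 24 hours. After fixation, blocking and antibody staining, PINK1 amount and mitochondrial localization are scored; CCCP serves as control.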
An asterisk follows results filed as active; u = inconclusive; x = not tested or not shown; [ ] = another dose, or the depositor's remark.

smiles	TRPML1 inh	PINK1 modulator	TRPML1 ag	Six1-Eya2 blk	CtBP-E1A blk	D2 agonist
COc1ccccc1CNC(=O)C(C)n1nc(C)n2c(cc3occc32)c1=O (configuration not stated)	20.6	1.4%	-0.6	-0.3	6.6	-5.9
COc1ccc(N(CC(=O)Nc2ccccc2OC)S(=O)(=O)c2ccc(NC(C)=O)cc2)cc1	33.9	8.9%	0.0	1.6	-0.2	-6.9
COCC(C)n1c(C)cc(C(=O)CSc2nnc(Nc3ccccc3F)s2)c1C (configuration not stated)	-2.9	-1.4%	2.9	-21.4	-10.1	-2.7
Cc1c(NC(=O)CN2CCN(C(c3ccccc3)c3ccccc3)CC2)c(=O)n(-c2ccccc2)n1C	-0.9	-1.2%	0.6	-3.4	1.0	-2.0
Cc1ncoc1C(=O)NC1CC(C)(C)Cc2c1cnn2-c1ccc(F)cc1 (configuration not stated)	-2.1	-0.5%	-0.1	-6.1	-1.7	-6.6
Cn1cccc1CC(=O)N/N=C/c1ccc(C(C)(C)C)cc1	16.5	3.8%	0.7	-25.6	-22.0	2.7
COc1cc(C2c3c(oc4ccccc4c3=O)C(=O)N2Cc2ccccc2Cl)ccc1O (configuration not stated)	-13.7	-0.8%	-0.5	x	x	x
CCCCCOc1ccc(C(O)C(CN2CCOCC2)c2ccccc2)cc1 (configuration not stated)	24.4	9.8%	0.3	5.5	1.5	0.7
Cc1nccn1Cc1cccc2ccccc12	-9.5	2.8%	-0.3	-4.9	5.7	1.5
CCCCN(Cc1cc2cc(OC)ccc2[nH]c1=O)S(=O)(=O)c1ccc(C)cc1	-13.3	13.7%	2.3	-5.3	-0.3	-3.0
CCC(c1nnc(SCC(=O)NCCc2ccc(OC)c(OC)c2)n1Cc1ccccc1)N(C)C (configuration not stated)	-15.2	2.8%	0.3	3.1	-6.2	-7.2
CC1=C(C(=O)N2CCOCC2)CC(CC(=O)NCCc2ccccn2)C(=O)N1Cc1ccccc1 (configuration not stated)	-12.1	1.1%	-0.3	7.5	8.5	-5.1
O=C(Nc1ccc(F)cc1)c1ccc(CN2CC(=O)N3CCCCC3C2=O)cc1 (configuration not stated)	-17.8	-0.9%	0.5	x	x	x
[O-][N+]1=c2ccc(Nc3ccccc3)cc2=NC12CCCCC2	29.9	4.7%	0.1	u	u	-4.2
Cc1noc(C)c1COc1cccc(C(=O)Nc2ccc(Br)cc2F)c1	51.6	1.5%	1.9	9.0	-12.3	0.8
CCCOc1nc2c(c(=O)n(C)c(=O)n2C)n1Cc1cccc2ccccc12	11.3	0.8%[38.3 µM]	-0.6	-1.9	8.9	0.8
CCCc1cc(=O)n2[nH]c(SCc3ccc(Cl)cc3)nc2n1	-20.2	2.8%	0.6	0.2	-22.5	-1.6
O=C1C2CCCN2C(c2ccc(F)cc2)N1c1ccc(Cl)cc1 (configuration not stated)	5.7	-0.6%	1.0	5.8	-7.6	-3.0
CC(C)NC(=O)c1ccc(-c2cc(C(F)(F)F)ccc2Cl)o1	-3.9	9.9%[38.3 µM]	0.5	2.8	8.4	-3.0
Cc1ccc(NC(=O)CCS(=O)(=O)c2ccc(Br)cc2)nc1	-13.4	0.6%	0.0	15.1	7.4	-1.4

Entries of single compounds, quoted from the list:
Entry for COCC(C)n1c(C)cc(C(=O)CSc2nnc(Nc3ccccc3F)s2)c1C (configuration not stated) = TRPML1 inh: -2.9; PINK1 modulator: -1.4%; TRPML1 ag: 2.9; Six1-Eya2 blk: -21.4; CtBP-E1A blk: -10.1; D2 agonist: -2.7
Entry for O=C1C2CCCN2C(c2ccc(F)cc2)N1c1ccc(Cl)cc1 (configuration not stated) = TRPML1 inh: 5.7; PINK1 modulator: -0.6%; TRPML1 ag: 1.0; Six1-Eya2 blk: 5.8; CtBP-E1A blk: -7.6; D2 agonist: -3.0

Later entries:
smiles	TRPML1 inh	PINK1 modulator	TRPML1 ag	Six1-Eya2 blk	CtBP-E1A blk	D2 agonist
COc1ccc(N2CCN(C(=O)Cn3cnc4nc5c(cc4c3=O)CCCC5)CC2)cc1	-14.9	0.1%	0.2	x	x	x
O=C(OCc1cccs1)c1ccccc1NS(=O)(=O)c1ccc2c(c1)OCCO2	-10.7	-0.1%	2.0	15.6	-2.3	-3.1
O=C(Nc1ccc(C(O)c2ccccc2)cc1)[C@H]1C[C@H](O)[C@@H](CO)O1 (some centres not stated)	x	2.5%	-0.8	3.2	0.7	-4.4
Cc1c(C(=O)Nc2ccc(F)cc2)cn2c(nc3ccccc32)c1C#N	-13.3	10.1%	-0.3	-1.2	1.0	-1.2
COc1cc(Cl)c(C)cc1NC(=O)c1cc(S(=O)(=O)N(C)C)ccc1N1CCCC1	13.8	5.2%	3.2	5.6	6.4	-3.9
COc1ccc(NS(=O)(=O)c2cccc(NC(=O)C3=NN(c4ccccc4)C(=O)CC3)c2)cc1	-10.1	-0.4%	0.5	-10.7	x	4.8
CCOc1cc(C2C(C#N)=C(N)Oc3n[nH]c(CC)c32)ccc1OCCN1CCOCC1 (configuration not stated)	12.5	0.3%	0.9	-0.1	-0.4	-4.1
C[C@@H]1CN([C@H](C)CO)C(=O)CCCn2nncc2CO[C@@H]1CN(C)S(=O)(=O)c1ccc(C#N)cc1	-1.7	3.3%	-0.3	0.0	1.3	-8.7
Cc1cc(NC(=O)CSc2nc(C3CCCCC3)nc3ccccc23)no1	4.8	6.7%	3.0	2.0	3.9	-1.2
Cc1ccc(S(=O)(=O)N(C)CC(=O)N2CCCC2)cc1	1.5	1.4%	-0.8	5.7	13.7	-2.3
CC(=O)N1c2ccccc2C2CCCC[C@H]21 (some centres not stated)	-7.8	1.9%	0.1	-11.1	9.5	-6.8
COc1cccc(NC(=O)c2ccc3[nH]c(C)cc(=O)c3c2)c1	-9.3	1.3%	-0.2	x	x	x
COc1ccc(NC(=O)c2[nH]c(C)c(C(C)=O)c2C)cc1	20.5	3.3%	0.3	-8.4	-7.6	-2.7
COc1ccc(CNC(=O)CN(C(=O)c2csnn2)c2cccc3c2CCCC3)cc1	1.9	2.4%	-0.9	11.5	-0.9	2.8
CCOc1ccc(-c2nnc(SCC(=O)NC(C)CC)nc2-c2ccc(OCC)c(OC)c2)cc1OC (configuration not stated)	6.1	0.2%	-0.1	x	x	x
COc1ccc(S(=O)(=O)NCCc2sc(-c3ccccc3)nc2C)cc1OC	-20.6	-0.1%	3.0	x	x	x
Oc1c(C(c2cccc(Cl)c2)N2CCOCC2)sc2nc(-c3ccco3)nn12 (configuration not stated)	14.4	0.0%	1.1	x	x	x
O=C(c1cccc(Cl)c1)N1CCC(C(=O)N2CCN(Cc3ccccc3)CC2)CC1	2.6	-2.0%	-0.1	-6.3	1.0	-0.8
COc1ccc(CN(C)CC(=O)NC(=O)NC2CCCCC2)cc1	2.0	1.0%	0.5	-0.2	x	-3.4
C=CCOC(=O)C(=O)/C=C/c1csc2ccccc12	-1.0	1.3%	3.7	-5.6	-0.8	1.9
N#Cc1c(SCC(=O)Nc2nc3ccccc3s2)sc2c(O)cc(=O)[nH]c12	5.5	1.3%	-0.3	-20.5	-23.2	6.6
CC(=O)Nc1cc2c(cc1NC(=O)c1cnccn1)OCCO2	5.9	-1.1%	-0.1	-3.9	5.1	-5.2
COc1ccc(N2CCN(CCCNC(=O)CC3Oc4ccc(C)cc4NC3=O)CC2)cc1 (configuration not stated)	-21.8	-3.8%	1.4	-24.3	-15.2	-1.4
COc1ccc(N(C(=O)c2ccn[nH]2)C(C(=O)NC(C)(C)C)c2ccc(F)cc2)cc1 (configuration not stated)	5.4	0.5%	0.9	-0.6	-0.1	-3.9
CC1CCCC(NC(=O)c2n[nH]c(=O)c3ccccc23)C1C (configuration not stated)	1.7	-0.1%	0.0	-1.4	0.4	0.0
O=C(OCC(=O)N1CCC(Cc2ccccc2)CC1)c1cc(Br)ccc1O	21.4	2.2%	3.1	4.9	2.4	0.3
O=C(COC(=O)c1cc(=O)[nH]c2ccccc12)Nc1nc(-c2cccc(Br)c2)cs1	-3.4	4.6%	-1.4	-15.2	4.5	3.5
CC(=O)OCC(=O)C1(O)CCC2C3CCC4C(OC(C)=O)C(=O)CCC4(C)C3C(=O)CC21C (configuration not stated)	-5.4	3.1%	1.2	1.1	1.1	-2.1
COc1ncnc(OC)c1S(=O)(=O)Nc1ccc(C(F)(F)F)cc1	21.4	1.5%	2.0	-1.5	x	2.9
CCOCCCNC(=S)N(CCN(C)C)Cc1cc2cc3c(cc2[nH]c1=O)OCCO3	-10.1	0.5%	0.6	5.5	-6.7	-4.2
COc1cccc(NC(=O)C2CC(=O)N=C(N)S2)c1 (configuration not stated)	3.7	-0.6%	-0.7	-0.1	0.8	-4.2
COc1ccc(NC(=O)C2CCCN(C(=O)c3ccc(Cl)cc3)C2)cc1S(=O)(=O)N(C)C (configuration not stated)	-4.0	-1.0%	0.0	4.3	2.7	0.1
CN1C(=O)/C(=C/c2ccccc2F)Sc2ccc(C(=O)N3CCCC3)cc21	39.6	0.8%	2.0	2.4	-10.5	9.6
O=C(COc1ccc(Cl)cc1Cl)NC1CC1	10.8	1.2%	-1.1	0.4	3.9	-4.0
O=C(CNC(=O)c1ccc(Cl)cc1)OCn1nnc2ccccc2c1=O	-3.5	4.3%	-0.1	-0.3	-2.8	-4.3
CCC(=O)c1cn(CC(=O)Nc2ccc(OC)cc2)c2ccccc12	-0.6	8.2%	2.0	0.6	8.3	4.2
O=[N+]([O-])c1cccc(-c2nnn(C34CC5CC(CC(C5)C3)C4)n2)c1	88.7	9.8%	1.6	1.1	3.9	-2.2
CC(=O)Nc1ccccc1C(F)(F)F	3.2	1.6%	0.4	-0.1	8.9	-1.0
Cn1c(=O)c2cc(S(=O)(=O)NC(C(=O)N3CCCCCC3)c3ccccc3)ccc2n(C)c1=O (configuration not stated)	-19.2	1.2%	-0.3	3.1	23.1	2.8
O=C(CCNC(=O)c1ccc(Br)cc1)Nc1cccc(S(=O)(=O)N2CCCCCC2)c1	23.6	18.5%	-0.3	-14.8	20.4	0.2
O=C(c1ccc(CS(=O)(=O)c2cccc(C(F)(F)F)c2)o1)N1CCN(c2ccccn2)CC1	-6.1	4.0%	-0.8	-1.4	-6.9	-2.8
S=C(N/N=C/c1ccc2ncccc2c1)Nc1cccnc1	8.2	3.4%	3.8	-13.4	-1.7	-18.5
CCCCOC(=O)CSc1nnc(-c2ccc(Cl)cc2Cl)o1	-4.9	0.5%	-1.0	47.6	24.2	-1.8
Cc1ccc(Nc2nc(N)nc(N)c2N=O)cc1C	x	-0.2%	-1.0	-18.3	-14.3	-5.6
O=C(CCS(=O)(=O)c1ccc(F)cc1)N1CCN(c2ccccc2)CC1	39.8	-0.1%	0.2	5.5	5.0	5.1
